Compound activity deposited in PubChem BioAssay by ICCB-Longwood Screening Facility, Harvard Medical School.
CapD inh: inhibitors of Bacillus anthracis CapD enzyme; z-score (test concentration not listed); purified CapD enzyme, fluorescence intensity read-out; stronger effect = lower value; some hits fall short of the stated cut; AID 492967; 140,000 tested, 0.23% active;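 active means z-score under -4 in either of two replicates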;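 further: stock transfer was 100 nL into about 40 µL; score is relative to mean and spread of the plate; one replicate is shown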
AID504770: growth inhibitors of E. coli YBA685 in a screen for V. cholerae RctB (chromosome II replication) inhibitors; E. coli YBA685 rctB-dependent plasmid, OD600 growth, 3 h; stronger effect = lower value; z-score (no concentration beside the values); 130,000 tested, 0.27% active;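 active means z-score under -2 on both plates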;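 further: wells of about 30 µL received 100 nL stock; score is relative to mean and SD of the test wells; the first replicate is given; strong numbers were not always called active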
* marks the source's active call; other numbers are inactive results; nt = not tested or not shown; & = joins results of further samples.

molecule	AID504770	CapD inh
O=C(Nc1cccc(C(F)(F)F)c1)C1CCC(=O)N1Cc1ccccc1Cl (stereo not given)	nt	-0.49
CC(C)Cn1cc(NC(=O)N2CCC(c3ccccc3)C2)c2ccccc2c1=O (stereo not given)	-0.9	14
CCOc1ccc(NC(=O)CSc2nc3ccccc3c(=O)n2C2CC2)cc1	-0.05	-0.26
COc1cc(CC(=O)Nc2nc3ccc(S(N)(=O)=O)cc3s2)cc(OC)c1OC	0.85	nt
CC(=O)N1CCN(c2ccccc2F)CC1	2.2	nt
CC(C)(CO)NCc1ccc(-c2ccc(Cl)cc2)o1	-0.5	nt
CCOC(=O)/C(Br)=N\Nc1ccc(C)cc1	-0.7	-0.97
Cc1nc(N2CCN(Cc3ccc4c(c3)OCO4)CC2)c2c(C)c(C)sc2n1	nt	-0.17
COc1cnn(-c2ccccc2)c(=O)c1N(C)C	-0.2	-0.98
O=C(CCc1ccccc1)NCCCN1CCOCC1	0.45	0.3
COc1ccccc1NC(=S)C1=C(O)c2ccccc2N(C)S1(=O)=O	nt	-0.83
CCc1nnc(NC(=O)c2nnn(-c3cccc(C(F)(F)F)c3)c2C)s1	-0.6	nt
Cc1ccc(-c2ccn(-c3ccc(C)c(Cl)c3)c(=S)n2)cc1	2.5	-1.1
O=C(Nc1ccc(S(=O)(=O)N2CCc3ccccc32)cc1)c1ccccc1	2.4	0.21
CCOC(=O)c1c(C)c(-c2ccccc2)n(CC(=O)NCc2ccco2)c1C	2	-0.74
c1ccc(C2CN3CCSC3=N2)cc1 (stereo not given)	0.25	-0.095
CCCCCCCCCCCCCC(=O)OC1CCC2(C)C(=CCC3C2CCC2(C)C(C(C)CCCC(C)C)CCC32)C1 (stereo not given)	nt	-0.32
CCOC(=O)C1CCN(/C=C(\C#N)S(=O)(=O)c2ccc(Cl)cc2)CC1	1.4	-0.36
Cc1onc(-c2ccccc2)c1CNC(=O)NC1CCN(C(=O)OCc2ccccc2)CC1	-0.15	0.47
CCN1C(C(=O)c2ccccc2)=C(NC(=O)c2ccccc2)c2ccccc2S1(=O)=O	-0.5	-0.83
O=C(CCCSc1nc2cc(Cl)ccc2c(=O)n1Cc1ccco1)N1CCOCC1	-0.4	nt
c1ccc(NNc2nncc(-c3ccccc3)n2)cc1	-0.15	-0.98
Cc1ccccc1C(=O)N1N=C(c2ccc(Br)cc2)CC1c1nc2ccccc2[nH]1 (stereo not given)	0.45	-0.23
COc1ccc(C2C(C#N)=C(N)Oc3n[nH]c(-c4cccc([N+](=O)[O-])c4)c32)cc1OC (stereo not given)	nt	-0.28
COc1cc(/C=N/NC(=O)c2cc(Br)ccc2Cl)cc(OC)c1OC	nt	0.48
CC1=C/C(=N\N=C2\NC(=O)C(CC(=O)Nc3ccccc3)S2)CC(C)(C)C1 (stereo not given)	0.25	0.87
Cc1ccc(Cl)cc1N1CCN(CCCNC(=O)Cn2ncc3ccsc3c2=O)CC1	2.5	-1.8
FC(F)(F)c1cnc(-n2ccc3ccccc32)c(Cl)c1	-0.75	1.6
Cc1cc(C)c(C(=O)c2ccc(C(=O)N(C)C)cc2)c(C)c1	0.5	0.22
Cc1ccc(SCC(=O)N2CCCCC2)cc1	-0.6	0.2
COc1ccc(OC)c(S(=O)(=O)N2CCCC2)c1	-0.25	0.14
O=CNc1c(O)c2ccccc2oc1=O	-0.85	14
CCOC(=O)c1ccc(-n2c(=S)sc3c2nc(SCC(=O)Nc2ccc(OC)cc2OC)n2c4ccccc4nc32)cc1	nt	-0.27
O=c1[nH]c(-c2ccccc2)nc(=S)[nH]1	-0.5	-1.4
O=C1/C(=C/c2cn(-c3ccccc3)nc2-c2cccs2)SC(=S)N1C1CCS(=O)(=O)C1 (stereo not given)	nt	-0.47
O=C(c1ccc(CN2CCc3ccccc3C2)cc1)N1CCCCCC1	-0.75	0.38
O=C(Nc1cc2ccc(O)cc2oc1=O)c1ccc(Cl)cc1Cl	nt	-0.4
COC(=O)c1nnn(-c2nonc2N)c1CN1CCCC1	nt	-0.28
Cc1cccc(NC(=O)COC(=O)c2ccco2)c1	1.2	nt
CCN(CC)S(=O)(=O)c1ccc(O)c(C(=O)OCC(=O)N2c3ccccc3CC2C)c1 (stereo not given)	0.3	nt

Six records drawn at random from those above:
molecule	AID504770	CapD inh
O=C(c1ccc(CN2CCc3ccccc3C2)cc1)N1CCCCCC1	-0.75	0.38
O=C1/C(=C/c2cn(-c3ccccc3)nc2-c2cccs2)SC(=S)N1C1CCS(=O)(=O)C1 (stereo not given)	nt	-0.47
CCN(CC)S(=O)(=O)c1ccc(O)c(C(=O)OCC(=O)N2c3ccccc3CC2C)c1 (stereo not given)	0.3	nt
Cc1cccc(NC(=O)COC(=O)c2ccco2)c1	1.2	nt
CCOC(=O)c1ccc(-n2c(=S)sc3c2nc(SCC(=O)Nc2ccc(OC)cc2OC)n2c4ccccc4nc32)cc1	nt	-0.27
COC(=O)c1nnn(-c2nonc2N)c1CN1CCCC1	nt	-0.28

Following part:
molecule	AID504770	CapD inh
COc1ccc2c3c([nH]c2c1)[C@H]1C[C@H]2[C@H](C[C@@H](O)[C@H](OC)[C@H]2C(=O)O)CN1CC3	nt	0.19
NC(=O)c1c(NC(=O)Cn2cnc3c(cnn3-c3ccccc3)c2=O)sc2c1CCC2	0.5	nt
CCN(C(=O)CSc1ccc2ccccc2n1)C1CCS(=O)(=O)C1 (stereo not given)	0.25	nt
O=C(O)CCCc1c(-[n+]2ccccc2)[nH]c2ccccc12	-0.8	0.005
CCOC(=O)c1[nH]c(C)c(C(=O)N2CCCC(C)C2)c1C (stereo not given)	-0.8	nt
COc1ccc(OCC(NS(=O)(=O)c2ccc(-n3cnnn3)cc2)C(C)C)cc1 (stereo not given)	0.2	-0.2
CCOC(=O)CN1C(=O)/C(=c2\sc3nc4ccccc4n3c2=O)c2ccccc21	-1	0.3
CN(C)S(=O)(=O)c1cccc(CSc2nnc(-c3c[nH]c4ccccc34)o2)c1	0	nt
N#Cc1ccc(COC(=O)CCc2nc(N)nc(Nc3ccccc3)n2)cc1	-0.1	nt
CCCN(CCC)CC(O)CN(c1ccccc1OC)S(=O)(=O)c1ccc(C)cc1 (stereo not given)	nt	-0.6
O=C(CSc1ccccn1)N1CCN(S(=O)(=O)c2ccccc2)C1	-0.05	-0.74
Cn1c(C(=O)O)c(CC(=O)Nc2cnc3ccccc3c2)c2ccccc21	nt	0.4
CN(C(=O)C1CCCC1)c1c(N)n(Cc2ccccc2)c(=O)[nH]c1=O	0.95	nt
CC(C)Cn1c2c(c(O)c(C(=O)Nn3c(Cc4ccccc4)nc4ccccc4c3=O)c1=O)CCCC2	nt	4.2
Cc1cccc(N2C(=O)CC(SCc3nc4ccccc4[nH]3)C2=O)c1 (stereo not given)	0.15	0.97
Cc1cc(SCC(=O)NN)c(C)cc1Cl	1.3	0.24
CC1(C)CC(=O)c2sc(NC(=O)C3=COCCO3)nc2C1	0.7	-1.3
CC(C)C(=O)N1CCN(S(=O)(=O)c2ccc(F)cc2)CC1	0.05	nt
COc1ccc(CC2CC3CCN2CC3)cc1 (stereo not given)	-0.05	0.39
CCNC(=O)c1ccc2c3c(onc13)-c1ccccc1C2=O	nt	-0.64
COC(=O)CCc1c(C)nn(-c2ccc(C(=O)N3CCN(C(=O)OC(C)(C)C)CC3)cc2)c1C	nt	0.26
CC(C)/C(=N/O)c1ccccc1	-0.55	0.06
Cc1ccc(N=C(N(C)C)P(=O)(N(C)C)N(C)C)cc1	-0.05	nt
O=C(Cc1ccccc1)OCc1nc2ccccc2s1	1.5	0.55
Clc1ccc(N2CCCC3CCCCC32)nn1 (stereo not given)	-1.1	-0.49
O=C(COn1c(=O)n(COC(=O)c2ccccc2)c2ccccc21)c1ccccc1	-0.6	-0.36
CNC(=O)c1ccccc1-c1ccccc1	1.4	-0.22
O=C(O)C1CC2C=CC1CC2 (stereo not given)	-1.2	-0.17
COc1ccc(-n2c(-c3ccccc3)csc2=NC(=O)c2ccccc2)cc1	-0.5	0.81
CC1=CC(=NC#N)C(C)=CC1=NC#N	1.4	nt
CCn1c(=O)c(-c2ccccc2)c(O)c2ccccc21	-1.2	1.4
CCc1nc2ccccc2n1CCC(N)=O	-0.65	-0.02
COc1ccc(CC(CC(=O)O)C(=O)O)cc1 (stereo not given)	-0.55	4
O=C(Nc1cccc(F)c1)NC1CCCC1	-0.85	-1.4
CCOC(=O)C1(CCC#N)C(=O)C=C(c2ccc(OC)cc2)CC1c1ccc2ccccc2c1 (stereo not given)	-0.95	-0.21
c1cncc(-c2noc(-c3cc(C4CC4)[nH]n3)n2)c1	0.6	0.19
C=CCn1c(-c2ccco2)nn(C2CC(O)(O)C3OCC2O3)c1=S (stereo not given) (tested in a mixture with another compound)	-0.35	0.51
C1=CCC(/C=N/n2cnnc2)CC1 (stereo not given)	-0.25	nt
COc1ccc(NC(=O)/C=C/c2ccc(OCc3cccc(Cl)c3)cc2)cc1	nt	-0.24
CCCCCCCCCCNS(=O)(=O)c1cc2c(c([N+](=O)[O-])c1)-c1c(cc(S(=O)(=O)NCCCCCCCCCC)cc1[N+](=O)[O-])C2=O	nt	0.26
COc1cccc(N2C(C)=CC(=C(C#N)C#N)C=C2C)c1	-0.6	nt
CCOC(=O)CC(C)=Nc1cnn(-c2ccccc2)c1	-0.95	0.025
COc1ccccc1Nc1ncnc2ccccc12	-0.25	-0.94
COC(=O)CNC(c1ccccc1)c1cc(Br)ccc1NC(=O)c1ccccc1Cl (stereo not given)	3.5	1.9
Cc1ccc(NC(=O)c2ccccc2NS(C)(=O)=O)cc1C	0.2	2.4
COc1cc(/C=C(\C#N)C(=O)NC2CCCCC2)cc(OC)c1O	0.1	nt
O=C(c1ccco1)N1CCN(CC(O)COCc2cccs2)CC1 (stereo not given)	-0.05	nt
CC(=NCc1ccco1)c1c(C(F)(F)F)[nH]n(-c2nc3ccccc3s2)c1=O	nt	0.45

Two of these compounds, reformatted.
Sequence of screens: AID504770, CapD inh
- COc1ccc(CC(CC(=O)O)C(=O)O)cc1 (stereo not given)
→ -0.55, 4
- O=C(Nc1cccc(F)c1)NC1CCCC1
→ -0.85, -1.4

Continuation.
molecule	AID504770	CapD inh
Cc1oc(CC(C)C)c(CN2CCOCC2)c1C(=O)O	-0.4	nt
Cc1cccc(CN2CCN(S(=O)(=O)c3ccc(C)c([N+](=O)[O-])c3)CC2)n1	nt	0.78
Cc1ccccc1Cn1c2ccccc2c2cnn(CC(=O)N3CCCC3)c(=O)c21	-0.25	-0.005
COC(=O)COc1ccc2c(=O)c(-c3ccc4c(c3)OCCO4)c(C)oc2c1	0.85	nt
CC1C(=O)N(c2ccccc2)C(=N)N1c1nc(N(C)C)nc(N(C)C)n1 (stereo not given)	nt	-0.14
Cc1ccc(C(=O)COC(=O)c2cc(C)oc2C)cc1	-0.3	nt
CCCN1C/C(=C/c2ccc3c(c2)OCO3)C(=O)/C(=C/c2ccc3c(c2)OCO3)C1	-0.4	0.55
CCOC(=O)c1cc(-c2ccccc2)sc1N	0	0.91
Cc1nnc(SCc2ccc(C(=O)O)cc2)s1	0.35	1.6
Clc1ccc(COc2ccc(-c3noc(C4CC4)n3)cc2)cc1	nt	-0.95
COc1cc(/C=N/c2oc(C)c(C)c2C#N)cc(Br)c1O	-0.7	-2.4
CCCOC(=O)c1c(NC(=O)CSc2nc(-c3ccco3)cc(C(F)(F)F)n2)sc(C(=O)N(C)C)c1C	-0.1	0.78
CCOc1cc2oc(=O)cc(C)c2cc1Cl	-0.5	36
Cc1sc(-c2ccc(Cl)cc2)nc1CC(=O)N1CCN(c2nccnc2C#N)CC1	nt	1.6
Cc1ccc(C)c2c(N)c3c(nc12)CCCCC3	-1.1	nt
O=C(CCc1nc2ccccc2[nH]c1=O)OCc1ccc(Cl)cc1	-1&0.75	-0.015
COC(=O)c1ccc(COC(=O)c2oc3ccccc3c2COC(C)C)o1	1.4	nt
COc1cc(OC)nc(N2CCN(C(=O)c3ccccc3NC(=O)c3cccc(C(F)(F)F)c3)CC2)n1	nt	-0.48
O=C(CSc1ncnc2ccccc12)N1CCCC1	-0.4	-0.32
Cc1oc(=O)c(NC(=O)c2cccc(Cl)c2)cc1C(=O)c1ccccc1	nt	-0.37
O=C(Nc1nnc(C2CC2)s1)C(F)(F)F	-0.75	-0.35
N#CC1=C(N)N(c2ccc(Cl)cc2)C2=C(C(=O)CCC2)C1c1cc(Br)cs1 (stereo not given)	nt	2.5
O=C1CCC/C(=N\NC(=O)Cc2cn3ccsc3n2)C1	1.1	nt
CN(C(=O)c1cccc(Nc2ccc(-c3ccc4c(c3)OCCO4)nn2)c1)C1CCCCC1	-0.5	nt
CCOc1ccc(C2C3=C(CCCC3=O)N(CC)C3=C2C(=O)CCC3)cc1	-0.8	11
O=C(NCCc1ccccn1)c1nc2ccccc2c(=O)[nH]1	0.9	0.63
CN(C)c1ccc(/C=C(\C#N)S(C)(=O)=O)c(F)c1C#N	0.65	-2.6
